# Screens (PubChem)
# gsp antagonist: gsp mutant antagonism; 340,000 tested, 0.4% active; Potency, µM (highest dose often 76.9 µM), without a hit: at the top dose activity change, negative = inhibition, usual class: inhibitors; gsp-mutant cells, cAMP HTRF, 30 min; control for the full effect not named in the record; active = falling curve of any shape with a large fitted effect; inconclusive = falling curve, mostly with a smaller effect; inactive = flat or rising curve; cell line not stated here;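 note: intracellular cAMP measured with PDE inhibitor Ro 20-1724 present during compound exposure; potency is the fitted concentration of half-maximal effect; % is set by controls: 0 for no effect and ±100 for the full control effect; nearly all actives have a fitted effect of over 65% in size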
#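 G418-selected cells were plated in DMEM/10% FBS for 16-24 h at 37C, then treated with compounds plus the PDE inhibitor […] (300 uM solution added) for 30 min at 37C. Intracellular cAMP was measured by HTRF after 30 min lysis at room temperature.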
# TRPV1 potentiator: potentiators of human vanilloid receptor 1 (TRPV1); 320,000 tested, 0.02% active; TRPV1-expressing cells, Fluo-8 calcium influx, capsaicin EC20 potentiation; host cell line not named in the record; control for the full effect not named in the record; potentiation, % at 8.33 µM; Q8NER1; active means potentiation above 80%; inconclusive means 30% to 80%; inactive means below 30%; note: 0% is about no effect
# Target sequence (Q8NER1 whole entry, looked up): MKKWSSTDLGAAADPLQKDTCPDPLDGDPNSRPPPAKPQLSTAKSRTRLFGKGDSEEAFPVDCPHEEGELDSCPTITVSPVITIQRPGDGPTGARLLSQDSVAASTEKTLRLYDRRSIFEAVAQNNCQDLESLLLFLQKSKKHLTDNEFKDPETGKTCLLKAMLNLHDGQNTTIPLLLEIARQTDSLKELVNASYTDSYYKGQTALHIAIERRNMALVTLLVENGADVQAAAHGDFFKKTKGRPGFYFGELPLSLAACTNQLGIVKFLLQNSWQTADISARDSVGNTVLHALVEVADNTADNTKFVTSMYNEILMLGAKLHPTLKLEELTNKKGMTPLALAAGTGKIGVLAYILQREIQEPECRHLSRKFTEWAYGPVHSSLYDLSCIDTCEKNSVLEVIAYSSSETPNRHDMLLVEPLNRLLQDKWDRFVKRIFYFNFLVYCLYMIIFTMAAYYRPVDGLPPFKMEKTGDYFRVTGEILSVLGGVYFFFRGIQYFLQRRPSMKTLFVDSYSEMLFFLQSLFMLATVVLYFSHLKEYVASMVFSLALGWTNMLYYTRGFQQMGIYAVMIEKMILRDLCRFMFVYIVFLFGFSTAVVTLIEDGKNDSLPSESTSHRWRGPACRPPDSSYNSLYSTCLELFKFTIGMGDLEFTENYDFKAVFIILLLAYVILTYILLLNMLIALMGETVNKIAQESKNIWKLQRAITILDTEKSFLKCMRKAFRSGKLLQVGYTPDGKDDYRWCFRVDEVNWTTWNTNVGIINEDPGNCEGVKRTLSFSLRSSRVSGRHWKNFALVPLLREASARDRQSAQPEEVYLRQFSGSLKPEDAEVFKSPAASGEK
#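 TRPV1-expressing cells were cultured overnight at 35.5C and loaded with Fluo-8 calcium dye for 40 to 90 min at room temperature. After a 10 s baseline, compound was added and calcium influx was read kinetically for 3 min (ex 480/em 520 nm).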
# ClpP mod: qHTS Assay for Activators of ClpP. ATP-dependent Clp protease proteolytic subunit (Bacillus subtilis (strain 168)), P80244. Potency, µM (top dose mostly 57.5 µM), inactives show top-dose activity change, negative = active. purified B. subtilis ClpP, FRET peptide cleavage, 20 min. 340,000 tested, 1.9% active; active = well fitted falling curve with a large enough effect; inconclusive = small, poorly fitted or top-dose-only effect; inactive = no such curve, though single readings can be large or run the other way; note: potency is the fitted concentration of half-maximal effect; the source files actives as falling curves though it sought activators and does not explain the sign; nearly all actives have a fitted effect of over 65% in size; many hits overshoot -100%
#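 ClpP 10 microg/mL final, pH 8 Tris/KCl buffer with BSA, glycerol, Tween-20; compound pinned in; FRET-FV substrate; RT 20 min; Ex320/Em430; ΔFRET vs ADEP 5.8 microM, DMSO, no enzyme.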
# Menin MLL FP FL: displaces fluorescein MLL peptide from human menin; Fluorescence polarization, fluorescein-MLL peptide displacement from menin; AID 1766; 290,000 tested, under 10 active; FP activity change, % at 61.4 µM; inconclusive = falling polarisation curve, or a change in total fluorescence; inactive = total fluorescence flat and polarisation flat or rising; no compound was filed as active; the % refers to the polarisation; negative = inhibition;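 note: % of control where 0% means no effect; inhibitors lower the polarisation; unlabelled MLL peptide was the positive control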
# Sfp PPTase inh: inhibitors of Bacillus subtilis Sfp phosphopantetheinyl transferase; Q9F4F7; Biochemical Sfp PPTase activity, qHTS; Potency, µM, for inactives: max response, negative = inhibition, actives largely listed as inhibitors; 310,000 tested, 3.5% active; AID 1490; active = well fitted inhibition curve with a large enough effect; inconclusive = small, poorly fitted or top-dose-only effect, or another doubt; inactive = no such curve, though single readings can be large or run the other way;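 note: the enzyme is Sfp with the accession as filed and its product quenches rhodamine fluorescence; potency is the fitted concentration of half-maximal effect; 0% = enzyme reaction without inhibitor and -100% = no enzyme wells; top concentration of the series not given in the record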
#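 Sfp 15 nM + cpd, 15 min RT; start w/ rhodamine-CoA 5 uM, BHQ-2-YbbR 12.5 uM (final); 50 mM Hepes pH 7.6, 10 mM MgCl2, 0.01% NP-40, 0.01% BSA; read 525/598 nm at 0 and 30 min.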
# CtBP-E1A blk: blocks the CtBP interaction with E1A; AlphaScreen GST-E1A/His-CtBP binding, 1536-well; active compounds read low; control for the full effect not named in the record; activity change, % (concentration not given with the values); 340,000 tested, 0.49% active; in the data active means activity change below about -65%; inconclusive means about -30% to -65%; inactive means above about -30%; note: % is set by controls: 0 for no effect and ±100 for the full control effect
#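 In 5 uL wells, 23 nL compound meets equimolar GST-E1A and His-CtBP (5X stock 125 nM each) for 2 h, 37 °C. Beads (5X, 50 ug/mL) then 1 h, 37 °C, dark.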
# gsp ag: agonists of gsp mutant (McCune-Albright syndrome); gsp mutant cells, cAMP HTRF, 30 min; control for the full effect not named in the record; Potency, µM (titrated, usually from 76.9 µM), without a hit: top-dose activation (cAMP increase), most hits filed as activators; 340,000 tested, 0.13% active; AID 624287; active = well fitted activation curve with a large enough effect; inconclusive = small, poorly fitted or top-dose-only effect, or another doubt; inactive = no such curve, though single readings can be large or run the other way; cell line not stated here;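 note: phosphodiesterase inhibitor Ro 20-1724 added with compounds to block cAMP breakdown; potency is the fitted concentration of half-maximal effect; nearly all actives have a fitted effect of over 60% in size; about a fifth of the inactives were tested at one dose only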
#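 Cells stably selected in G418 were plated at 2000/well, grown 16-24 hr, then given compounds in DMSO with the PDE inhibitor […] (300 uM solution added) for 30 min at 37C; cAMP was read by HTRF.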
# The depositor's hits bear a star; ? = inconclusive; nt = not tested or not shown; & = joins results of further samples; [ ] = another dose, or the depositor's remark.
SMILES,gsp antagonist,TRPV1 potentiator,ClpP mod,Menin MLL FP FL,Sfp PPTase inh,CtBP-E1A blk,gsp ag
Cn1c(SCCCC(=O)c2ccc(Br)cc2)nnc1-c1ccncc1,?,3,-1.2%,3.2,-7%,-1,9%
Cc1cccc(N2CCN(C(=O)COCc3cc(-c4ccc5c(c4)OCO5)on3)CC2)c1C,-7%,16,-1.9%&-4.8%,0.3,-7%,-1,-18%
O=[N+]([O-])c1cc(C(F)(F)F)ccc1NCCc1ccccn1,-3%,nt,-4.1%,nt,nt,nt,7%
CN(C)C(CNC(=O)c1ccc(S(=O)(=O)NCc2ccco2)cc1)c1ccccc1 (stereo not drawn),6%,6,-3.0%,2.8,12%,-9,27%[15.4 µM]
Cc1ccc(-c2nc3ncccn3c2Nc2ccc3c(c2)OCCO3)cc1,0%,-1,0.7%&-2.0%,3.4,-10%,-4,-24%
Cc1ccc(NC(=O)C2CC(O)CN2C(=O)Oc2ccccc2)c(C)c1 (stereo not drawn),4%,6,nt,4.9,8%,2,-15%
COc1ccc(NS(=O)(=O)c2cc(NC(=O)Cc3n[nH]c(=O)c4ccccc34)ccc2OC)cc1,1%,nt,-1.4%,nt,nt,-4,16%
Cc1occc1C(=O)N1CCCC(N2CCN(c3ccccc3F)CC2)C1 (stereo not drawn),7%,0,-18%,nt,1%,2,-1%[15.4 µM]
C=CCCC(=O)Nc1ccc(Br)cn1,10%,3,nt,-0.2,7%,1,4%[15.4 µM]
CC/C(=N\NC(=O)c1c(C)nc2ccccn12)c1ccc(Cl)cc1,-25%,13,nt,-1.5,8%,17,?
CCc1ccc(-c2nc(SCC(=O)N3CCOCC3)n[nH]2)cc1,6%,-3,nt,-0.8,-3%,9,1%[15.4 µM]
CCN(CC)c1ccc(NC(=O)c2cc3ccccc3o2)c(C)c1,-5%,-17,-0.4%,1.5,-15%,-12,20%
O=S(=O)(Nc1nc2ccccc2[nH]1)c1ccc(Cl)cc1,-6%,-13,-0.1%,-0.9,9%,2,4%
O=C(O)c1cc2c(cc1NC(=O)c1c(F)cccc1Cl)OCCCO2,?,3,nt,-0.5,15%,-1,7%
COc1ccc(OC)c(S(=O)(=O)N2CCC(C(=O)NC(C)c3ccccc3)CC2)c1 (stereo not drawn),-12%,0,-7.2%,0.8,7%,-3,11%
NC1=NC[C@H](Cc2ccc(O)cc2)N1CCCCC1CCCCC1,13%,-16,1.5%,3.2,-16%,-7,nt
CCn1c(SCC(=O)Nc2nccs2)nnc1-c1ccccn1,3%,8,-4.0%,nt,-21%,-4,0%[15.4 µM]
CCOC(=O)C1=C(CC)Nc2ccccc2N=C1NC(=O)c1ccc(S(=O)(=O)N2CCCC2)cc1,2%,-25,nt,13,8%,-6,-7%[15.4 µM]
CCc1nnc(NC(=O)c2ccc(S(=O)(=O)N(CC(C)C)CC(C)C)cc2)o1,?,?,-1.0%,0.7,15%,-23,0%
CC(=O)c1cccc(N2C(=NC(=O)COc3ccccc3)SC3CS(=O)(=O)CC32)c1 (stereo not drawn),4%,-5,0.4%,3.0,9%,1,-12%
COc1ccccc1NC(=O)Nc1cc(C(C)(C)C)nn1C,2%,nt,nt,12,5%,9,25%
Cc1sc(NC(=O)c2ccco2)c(CN2CCN(c3ccc(F)cc3)CC2)c1C,4%,5,-2.7%,1.6,-7%,0,-3%
Cn1cc(-c2cccc(C(F)(F)F)c2)cc(C#N)c1=O,-6%,-3,4.9%,9.7,14%,nt,-32%
CCc1cccc(C)c1NC(=O)CSc1nnc(C)o1,9%,-7,2.8%,nt,7%,7,-39%[inhibitor]
O=C(Cn1cc(C(=O)C2CC2)c2ccccc21)NCc1ccc2c(c1)OCO2,-5%,-4,-0.2%,3.4,?,-7,-14%
CC(C)(C)OC(=O)N[C@@H](C(=O)OC(C)(C)C)c1ccc(C(F)(F)F)cc1,1%,-15,0.3%,nt,nt,-18,-73%[inhibitor]
O=C1CCCN1c1ccc(CNS(=O)(=O)c2ccc(F)cc2)cc1,-4%,3,-1.4%,1.5,1%,8,-3%
COc1cccc(-c2noc(-c3ccc(Br)o3)n2)c1,3%,1,nt,1.7,?,50,-3%[15.4 µM]

# 2 records drawn at random from the list so far, as already listed:
SMILES,gsp antagonist,TRPV1 potentiator,ClpP mod,Menin MLL FP FL,Sfp PPTase inh,CtBP-E1A blk,gsp ag
Cc1sc(NC(=O)c2ccco2)c(CN2CCN(c3ccc(F)cc3)CC2)c1C,4%,5,-2.7%,1.6,-7%,0,-3%
CN(C)C(CNC(=O)c1ccc(S(=O)(=O)NCc2ccco2)cc1)c1ccccc1 (stereo not drawn),6%,6,-3.0%,2.8,12%,-9,27%[15.4 µM]

# Grouped by structure: the compounds so far with sulfur.
SMILES,gsp antagonist,TRPV1 potentiator,ClpP mod,Menin MLL FP FL,Sfp PPTase inh,CtBP-E1A blk,gsp ag
Cn1c(SCCCC(=O)c2ccc(Br)cc2)nnc1-c1ccncc1,?,3,-1.2%,3.2,-7%,-1,9%
CN(C)C(CNC(=O)c1ccc(S(=O)(=O)NCc2ccco2)cc1)c1ccccc1 (stereo not drawn),6%,6,-3.0%,2.8,12%,-9,27%[15.4 µM]
COc1ccc(NS(=O)(=O)c2cc(NC(=O)Cc3n[nH]c(=O)c4ccccc34)ccc2OC)cc1,1%,nt,-1.4%,nt,nt,-4,16%
CCc1ccc(-c2nc(SCC(=O)N3CCOCC3)n[nH]2)cc1,6%,-3,nt,-0.8,-3%,9,1%[15.4 µM]
O=S(=O)(Nc1nc2ccccc2[nH]1)c1ccc(Cl)cc1,-6%,-13,-0.1%,-0.9,9%,2,4%
COc1ccc(OC)c(S(=O)(=O)N2CCC(C(=O)NC(C)c3ccccc3)CC2)c1 (stereo not drawn),-12%,0,-7.2%,0.8,7%,-3,11%
CCn1c(SCC(=O)Nc2nccs2)nnc1-c1ccccn1,3%,8,-4.0%,nt,-21%,-4,0%[15.4 µM]
CCOC(=O)C1=C(CC)Nc2ccccc2N=C1NC(=O)c1ccc(S(=O)(=O)N2CCCC2)cc1,2%,-25,nt,13,8%,-6,-7%[15.4 µM]
CCc1nnc(NC(=O)c2ccc(S(=O)(=O)N(CC(C)C)CC(C)C)cc2)o1,?,?,-1.0%,0.7,15%,-23,0%
CC(=O)c1cccc(N2C(=NC(=O)COc3ccccc3)SC3CS(=O)(=O)CC32)c1 (stereo not drawn),4%,-5,0.4%,3.0,9%,1,-12%
Cc1sc(NC(=O)c2ccco2)c(CN2CCN(c3ccc(F)cc3)CC2)c1C,4%,5,-2.7%,1.6,-7%,0,-3%
CCc1cccc(C)c1NC(=O)CSc1nnc(C)o1,9%,-7,2.8%,nt,7%,7,-39%[inhibitor]
O=C1CCCN1c1ccc(CNS(=O)(=O)c2ccc(F)cc2)cc1,-4%,3,-1.4%,1.5,1%,8,-3%
